Screens (PubChem)
Cruzain inh noDet = inhibitors of Trypanosoma cruzi cruzain without detergent; purified cruzain, Z-FR-AMC fluorescence, no detergent; Potency, µM, without a hit: max response, negative = inhibition, actives largely listed as inhibitors; actives 2.3% (n = 200,000); AID 1476; active means well fitted curve in the direction sought with a large enough effect; inconclusive means small, poorly fitted or top-dose-only effect, or another doubt; inactive means no such curve, though single readings can be large; an effect the other way counts as inactive or inconclusive;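 further: plate controls were enzyme without inhibitor for no effect and buffer without enzyme for full effect; nearly all actives have a fitted effect of over 40% in size; top concentration of the series not given in the record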
Target sequence (P25779 123-467 limits assumed): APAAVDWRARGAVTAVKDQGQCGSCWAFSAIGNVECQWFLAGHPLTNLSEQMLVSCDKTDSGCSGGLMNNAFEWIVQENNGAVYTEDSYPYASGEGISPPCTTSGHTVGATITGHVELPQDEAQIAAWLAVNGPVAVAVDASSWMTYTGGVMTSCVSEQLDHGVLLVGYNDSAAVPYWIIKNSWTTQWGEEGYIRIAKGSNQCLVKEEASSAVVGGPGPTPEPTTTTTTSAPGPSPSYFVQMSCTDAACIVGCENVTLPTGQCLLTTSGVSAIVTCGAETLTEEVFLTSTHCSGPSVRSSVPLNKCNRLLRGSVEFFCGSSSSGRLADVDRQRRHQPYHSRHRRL
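Purified cruzain at 1.5 nM, pre-incubated 15 min with compound at room temperature in 100 mM sodium acetate pH 5.5, 5 mM DTT, 0.00005% Triton X-100. Reaction started with 2 uM Z-FR-AMC; AMC fluorescence increase over 60 s gives rate.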
SARS PLpro yeast = inhibitors of SARS-CoV papain-like protease in yeast. S. cerevisiae expressing SARS-CoV PLpro, growth rescue; control for the full effect not named in the record. Potency, µM (top dose mostly 32.9 µM), inactives show top-dose activity, positive = growth rescue. actives 0.19% (n = 330,000). AID 485353; further: 0% is about no effect; nearly all actives have a fitted effect of over 55% in size; growth read by luminescence after 48 h
Marburg entry inh = Marburg virus entry inhibition | Potency, µM (titrated, usually from 37.8 µM), for the others: top-dose activity change, negative = inhibition, most hits filed as inhibitors | AID 540276 | actives 1.8% (n = 300,000) | Marburg virus pseudotyped entry inhibition, cell reporter; control for the full effect not named in the record; about a third of the inactives were read at about 46 µM; active = well fitted inhibition curve with a large enough effect; inconclusive = small, poorly fitted or top-dose-only effect, or effect the other way; inactive = flat fitted curve, though single readings scatter; tested in HEK293 cells; about a fifth of its hits are not listed in these tables; further: on the % scale 0 is the no-effect control and ±100 the full control effect; luciferase read-out
Lassa entry inh = Lassa virus entry inhibition; actives 1.2% (n = 300,000); Lassa virus pseudotype entry inhibition, cell reporter; control for the full effect not named in the record; Potency, µM (highest dose often 37.9 µM), for inactives: at the highest dose activity change, negative = inhibition, usual class: inhibitors; active means well fitted inhibition curve with a large enough effect; inconclusive means small, poorly fitted or top-dose-only effect, or effect the other way; inactive means flat fitted curve, though single readings scatter; tested in HEK293 cells; further: on the % scale 0 is the no-effect control and ±100 the full control effect; nearly all actives have a fitted effect of over 50% in size; luciferase read-out
Cruzain Triton = blocks cruzain activity in presence of Triton detergent | purified cruzain, Z-FR-AMC fluorescence, 0.01% Triton | Potency, µM, for the others: max response, negative = inhibition, actives largely listed as inhibitors | AID 1478 | P25779 | actives 0.43% (n = 200,000); active means well fitted curve in the direction sought with a large enough effect; inconclusive means small, poorly fitted or top-dose-only effect, or another doubt; inactive means no such curve, though single readings can be large; an effect the other way counts as inactive or inconclusive;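 further: plate controls were neutral wells for no effect and buffer without enzyme for full effect; nearly all actives have a fitted effect of over 40% in size; top concentration of the series not given in the record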
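Z-FR-AMC hydrolysis (2 uM substrate) by cruzain (1.5 nM) monitored kinetically at ex 360/em 450 nm after 15 min room-temperature compound exposure; 0.01% Triton X-100, pH 5.5, 5 mM DTT.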
RE007 growth inh = less growth of the S. pombe RE007 Vpr strain; S. pombe RE007 Vpr strain, BacTiter-Glo ATP luminescence, 24 h; control for the full effect not named in the record; Potency, µM (series often up to 92.2 µM), for inactives: at the top dose activity change, negative = less growth; actives 0.21% (n = 360,000); AID 651644; active = well fitted falling curve with a large enough effect; inconclusive = small, poorly fitted or top-dose-only effect; inactive = no such curve, though single readings can be large or run the other way;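 further: on the % scale 0 is the no-effect control and ±100 the full control effect; nearly all actives have a fitted effect of over 50% in size; the assay follows cell death caused by Vpr and the record does not say whether a fall means rescue or toxicity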
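Fission yeast strain RE007, carrying one chromosomally integrated HIV-1 vpr copy, was seeded at OD 0.01 in PMG+AL medium with 23 nL pinned compound. After 24 h at 30 °C and 99% humidity, viability was read by BacTiter-Glo luminescence.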
NS1 inh = influenza NS1 inhibition. S. cerevisiae slowed by influenza A NS1, growth recovery by OD600. Potency, µM (highest dose often 46.1 µM), for inactives: at the top dose activity, positive = more growth. actives 0.4% (n = 270,000). AID 2326; further: actives are rising curves; nearly all actives have a fitted effect of over 50% in size
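Recovery from NS1-induced slow growth read by OD600 in budding yeast switched to galactose assay medium (pH 6.0, -URA) at 1:100 dilution. Compound 23 nl per well; the matching strain lacking NS1 serves as control.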
StopGo reporter = FMDV 2A StopGo reporter, luciferase signal. actives 1.2% (n = 410,000). human cells with a luciferase reporter of 2A StopGo recoding; control for the full effect not named in the record. Potency, µM (top dose mostly 57.9 µM), without a hit: at the top dose signal change, negative = less light; active = well fitted falling curve with a large enough effect; inconclusive = small, poorly fitted or top-dose-only effect; inactive = no such curve, though single readings can be large or run the other way; tested in HEK293T cells; further: on the % scale 0 is the no-effect control and ±100 the full control effect; nearly all actives have a fitted effect of over 45% in size; luciferase light after 4 h
Numbers without * were called inactive; ? = inconclusive; . = no result given; & = joins results of further samples; [ ] = dose if it differs, or a comment. Unless noted, the call rests on the fitted dose curve; in most records, active means well fitted rising curve with a large enough effect; inconclusive means small, poorly fitted or top-dose-only effect; inactive means no such curve, though single readings can be large or run the other way. Potency means the concentration at half of the fitted maximal effect.

SMILES	Cruzain inh noDet	SARS PLpro yeast	Marburg entry inh	Lassa entry inh	Cruzain Triton	RE007 growth inh	NS1 inh	StopGo reporter
O=C(COc1ccccc1[N+](=O)[O-])NNC(=O)Nc1cccc2ccccc12	.	-2%	.	.	.	16%	1%	3%
COc1cccc(CC(=O)N2CCN(S(=O)(=O)c3ccc(Br)cc3)CC2)c1	.	23%	?	-19%[46.1 µM]	.	-2%	.	-6%
NS(=O)(=O)c1ccc(NS(=O)(=O)c2ccc3c(c2)OCCO3)cc1	.	-1%	-16%[46.1 µM]	6%	.	-2%	-9%	34%[activator]
O=C(CCN1C(=O)C2CCCCC2C1=O)Nc1nc2ccc(F)cc2s1 (stereo not given)	.	0%	?	11µM*	.	-2%	.	-17%
Cc1ccc(CNC(=O)CCCn2nc(C)n3ccnc3c2=O)cc1	.	-5%	.	.	.	9%	-5%	-7%
O=C(Nc1ccccc1Oc1ccccc1)c1cnccn1	-12%	-4%	-3%[46.1 µM]	?	-5.2%	-22%	-9%	-2%
O=C(NC(=S)NC(c1ccccc1)c1ccncc1)c1ccccc1 (stereo not given)	0%	-26%	6.5µM*	?	-6.9%	41%	-5%	?
Cc1ccc(NC(=S)NC(=O)c2cccs2)cc1F	.	27%	?	-28%[46.1 µM]	.	-8%	.	53%[activator]
O=C(NCCCc1ccc(F)cc1)C1CCC(=O)N(CCN2CCOCC2)C1 (stereo not given)	.	-4%	.	.	.	-5%	-4%	-7%
Cc1ccc2c(CC(=O)Nc3cccc(S(=O)(=O)N4CCOCC4)c3)coc2c1	.	0%	-16%	?	.	6%	.	58%[activator]
COc1cc(C(c2nnnn2C2CCCC2)N2CCN(C)CC2)cc(OC)c1OC (stereo not given)	0%	4%	7%&5%	14%	6.2%	19%	-3%	-13%
CCOC(=O)C1(CC2CCCCO2)CCN(C2CCSCC2)CC1 (stereo not given)	.	-1%	?	-15%	.	2%	-2%	-14%
N#C/C(=C/c1ccc(N2CCOCC2)o1)C(=O)N1CCOCC1	-11%	5%	10%	10%	-18%	9%	0%	6%
O=C(CNc1cc(S(=O)(=O)N2CCOCC2)ccc1NCC1CCCO1)Nc1ccc(C(F)(F)F)cc1 (stereo not given)	.	3%	-21%[46.1 µM]	33%	.	-7%	.	7%
O=C(Nc1nnc(Cc2ccccc2)s1)c1ccco1	-3%	-4%	18%	?	1.6%	-11%	-53%	11%
COc1ccccc1CN1C[C@@H]2C[C@@H](c3[nH]c4ccc(C)cc4c3C)N3CCC[C@@]23C1=O	.	0%	?	-26%[46.1 µM]	.	-6%	1%	-5%
CCC(CC)c1nnc(NS(=O)(=O)Cc2ccccc2)s1	-5%	1%	5%[46.1 µM]	-2%	1.1%	-1%	-6%	-2%
O=C(NC1CCCC1)c1ccc(CSc2nc3ccncc3n2Cc2ccccc2F)cc1	3%	.	16%[46.1 µM]	.	-6.7%	.	.	19%
COc1ccc(N2C(=O)CC(N3CCN(Cc4ccc5c(c4)OCO5)CC3)C2=O)cc1 (stereo not given)	.	1%	-2%[46.1 µM]	.	.	-15%	.	1%
CCn1c(SC)nnc1C1CCN(S(=O)(=O)c2ccc(OC)cc2)CC1	3%	3%	4%	4%	5.1%	-5%	23%	-25%
CCOc1ccc2nc(COC(=O)c3cccs3)c(C(C)=O)[n+]([O-])c2c1	.	0%	8%[46.1 µM]	-8%	.	6%	-5%	-27%
CCC(C)NC(=O)c1nn(-c2ccc(C)cc2)c(=O)n(C)c1=O (stereo not given)	1%	.	.	0%[46.1 µM]	-1.9%	.	.	4%
O=C(Nc1ccc(F)cc1F)c1ccc2c(=O)n3c(nc2c1)CCC3	.	-4%	?	?	.	-25%	.	-26%
FC(F)(F)c1ccccc1NC(=S)N1CCCC1	.	2%	10%[46.1 µM]	?	.	-10%	-2%	4%
COc1ccc(Cc2noc(-c3ccc(C)cc3)n2)cc1	-13%	-11%	3%	-15%	-1.9%	-19%	?	18%

7 entries from above, in markdown:
| compound | Cruzain inh noDet | SARS PLpro yeast | Marburg entry inh | Lassa entry inh | Cruzain Triton | RE007 growth inh | NS1 inh | StopGo reporter |
| --- | --- | --- | --- | --- | --- | --- | --- | --- |
| O=C(COc1ccccc1[N+](=O)[O-])NNC(=O)Nc1cccc2ccccc12 | . | -2% | . | . | . | 16% | 1% | 3% |
| COc1cccc(CC(=O)N2CCN(S(=O)(=O)c3ccc(Br)cc3)CC2)c1 | . | 23% | ? | -19%[46.1 µM] | . | -2% | . | -6% |
| NS(=O)(=O)c1ccc(NS(=O)(=O)c2ccc3c(c2)OCCO3)cc1 | . | -1% | -16%[46.1 µM] | 6% | . | -2% | -9% | 34%[activator] |
| O=C(CCN1C(=O)C2CCCCC2C1=O)Nc1nc2ccc(F)cc2s1 (stereo not given) | . | 0% | ? | 11µM* | . | -2% | . | -17% |
| Cc1ccc(CNC(=O)CCCn2nc(C)n3ccnc3c2=O)cc1 | . | -5% | . | . | . | 9% | -5% | -7% |
| O=C(Nc1ccccc1Oc1ccccc1)c1cnccn1 | -12% | -4% | -3%[46.1 µM] | ? | -5.2% | -22% | -9% | -2% |
| O=C(NC(=S)NC(c1ccccc1)c1ccncc1)c1ccccc1 (stereo not given) | 0% | -26% | 6.5µM* | ? | -6.9% | 41% | -5% | ? |

Back to the main list; the 3 compounds before the break are reprinted first.
SMILES	Cruzain inh noDet	SARS PLpro yeast	Marburg entry inh	Lassa entry inh	Cruzain Triton	RE007 growth inh	NS1 inh	StopGo reporter
O=C(Nc1ccc(F)cc1F)c1ccc2c(=O)n3c(nc2c1)CCC3	.	-4%	?	?	.	-25%	.	-26%
FC(F)(F)c1ccccc1NC(=S)N1CCCC1	.	2%	10%[46.1 µM]	?	.	-10%	-2%	4%
COc1ccc(Cc2noc(-c3ccc(C)cc3)n2)cc1	-13%	-11%	3%	-15%	-1.9%	-19%	?	18%
COC1(OC)N=C(N)C2(C#N)C(c3ccc(F)cc3)C12C#N (stereo not given)	-5%	7%	-3%	4%	3.3%	-1%	-2%	-7%
COc1ccccc1NC(=O)Cn1c(=O)n(-c2cccc(C)c2)c(=O)c2c1c1cc(C)ccc1n2C	-1%	.	.	5%[46.1 µM]	1.9%	.	.	0%
O=c1cc(CSc2ccc(S(=O)(=O)N3CCCCC3)cn2)nc2sccn12	-7%	1%	?	6%	0.1%	20%	-9%	-20%
Cc1cc(SCC(=O)c2cccs2)n2nc(C)c(-c3ccc(Cl)cc3)c2n1	?	10%	?	2%	-4.0%	5%	?	-41%
CC1(C)OC(=O)C(=CNC(CO)C(=O)O)C(=O)O1 (stereo not given)	.	-6%	19%[46.1 µM]	18%	.	3%	.	7%
Cc1cn2c(=O)cc(COc3ccc(NC(=O)COc4ccccc4)cc3)nc2s1	-13%	.	23%[46.1 µM]	-4%[46.1 µM]	-0.4%	.	.	7%
COc1ccc(-c2cc3cc(C(=O)O)ccn3c2C(=O)c2ccccc2)cc1	.	-3%	.	.	.	-10%	3%	?
C/C(=N\N1C(C)CCCC1C)c1ccccc1O (stereo not given)	.	1%	10%[46.1 µM]	-14%[46.1 µM]	.	42%	10%	-5%
O=C(Nc1cccc(F)c1)c1ccco1	.	0%	15%[46.1 µM]	2%[46.1 µM]	.	-4%	-5%	-2%
CCC(=NC1CCN(Cc2ccccc2)CC1)c1c(O)[nH]c(=O)[nH]c1=O	9%	9%	6%	-6%	6.1%	-8%	5%	-17%
CC1CN(C(=O)N2CCC(C(=O)NCc3ccccc3F)CC2)c2cc(Cl)ccc2O1 (stereo not given)	13%	.	.	-27%[46.1 µM]	-1.1%	.	.	-29%
Cc1c(Cl)cccc1NC(=S)N1CCCN(Cc2ccccc2F)C1	.	-3%	10µM*	?	.	.	.	1%
COc1cccc(=O)c2c(C)n(CC(=O)c3ccccc3)c(C)c12	.	1%	-9%[46.1 µM]	-10%[46.1 µM]	.	-8%	5%	-11%
Cc1cc(C)c(S(N)(=O)=O)c(C)c1N(C)S(=O)(=O)c1ccc(Cl)cc1	.	-1%	.	.	.	14%	-7%	5%
COc1ccc(C(=O)c2c(C)oc3cc([N+](=O)[O-])c(O)c([N+](=O)[O-])c23)cc1	-4%	-11%	-5%	3%	-9.7%	-4%	-24%	-13%
CC(=O)NC1N=C(C)N(c2ccccc2)C1=O (stereo not given)	6%	10%	-3%	-8%	6.3%	-15%	-2%	-14%
Cc1nn(C)c2c1c(-c1ccccc1)cc(=O)n2Cc1ccc(F)cc1	-8%	.	.	-10%[46.1 µM]	-5.9%	.	.	6%
COc1cccc(NC(=O)CN(C)C(=O)CCNC(=O)c2ccccc2Cl)c1	.	2%	1%	8%	.	-5%	.	9%
Cc1nc2cccnc2n1C1CCN(S(=O)(=O)c2ccc(C(C)C)cc2)CC1	9%	.	.	-17%[46.1 µM]	0.2%	.	.	-19%
COc1ccc(-c2cc(=O)[nH][nH]2)cc1	1%	11%	15%	-8%	2.9%	15%	?	-24%
CCOC(=O)C(NCCc1ccccc1)(NC(=O)CC)C(F)(F)F (stereo not given)	10%	-33%	13%	-14%	-1.5%	-20%	7%	-4%
O=S(=O)(Nc1ncccn1)c1ccc(NC(=S)NCCc2ccccc2)cc1	.	-1%	10%	0%	.	-2%	.	38%[activator]
CCC(Oc1ccccc1)C(=O)Nc1cc(-c2ccccc2OC)nn1-c1ccccc1 (stereo not given)	-27%	.	.	-16%[46.1 µM]	-1.4%	.	.	-20%
